Screening data (PubChem)
MT1-MMP reporter: MT1-MMP gene expression reporter suppression – cell-based, luciferase reporter, luminescence (AID 618); MT1-MMP promoter luciferase reporter cells, luminescence; calls from a first round at 10 µM; hits with a dose series show EC50 in µM; hit rate 0.62% among 87,000;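 active means over half of the reporter light lost at 10 µM or EC50 under 50 µM; inactive means the rest and hits that failed the dose series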;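 further: actives suppress MT1-MMP promoter-driven transcription so potencies describe inhibitors; HT1080 fibrosarcoma cells; overnight exposure; toxic or luciferase-blocking compounds were not removed from the actives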
WNV protease inh: blocks West Nile virus NS2B-NS3 protease activity; WNV NS2B-NS3 protease, fluorogenic substrate Ex360/Em465; stronger effect = lower value; z-score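 (tested at a level between 10 and 100 µM)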; hit rate 0.18% among 65,000; AID 577;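 active means z-score at -3 or under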;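 further: score is relative to mean and spread of the compound wells of a plate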
Target sequence (P06935 1371-1501 limits assumed): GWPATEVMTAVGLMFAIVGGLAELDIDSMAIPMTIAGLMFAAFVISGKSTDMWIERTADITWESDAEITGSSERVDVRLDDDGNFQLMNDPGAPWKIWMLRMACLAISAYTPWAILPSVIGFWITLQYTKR
Target sequence (P06935 1502-1679 limits assumed): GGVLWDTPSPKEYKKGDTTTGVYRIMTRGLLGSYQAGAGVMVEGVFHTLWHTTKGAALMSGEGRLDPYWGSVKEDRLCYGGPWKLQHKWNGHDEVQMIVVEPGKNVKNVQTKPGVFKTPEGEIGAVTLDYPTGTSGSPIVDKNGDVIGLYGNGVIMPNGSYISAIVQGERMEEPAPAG
Hsc70 ATP site: Hsc70 inhibitors, probe displacement, primary screen, biochemical, fluorescence polarization (AID 568). Hsc70 fluorescence polarization, probe displacement; higher % means a stronger effect; strong numbers were not always called active. one-dose displacement, % at 20 µM; IC50 in µM for titrated hits. 83,000 tested, under 10 active;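 active means displacement above 50% without optical interference and an IC50 on retest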;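 further: ATPase domain with a fluorescein-tagged ATP probe; 0% = vehicle and 100% = excess ADP; read after one hour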
* hit, by the source's call; i = inactive; nt = not tested or not shown; + = active, no number. This is a subset; count on the stated rates, not on these rows.

Each structure is followed by: WNV protease inh	Hsc70 ATP site	MT1-MMP reporter
O=C(CSc1nc2ccccc2nc1SCC(=O)N1CCOCC1)N1CCOCC1
    -1.02	-3.6%	i
CCCOC(=O)C1[C@H]2C(=O)N(CC3CCCO3)C[C@]23C=C[C@H]1O3 (stereo partly specified)
    -0.8	-4.0%	i
O=C1NCCNC1(c1c[nH]c2ccccc12)C(F)(F)F (stereo unspecified)
    0.22	4.1%	i
O=C(Nc1ncccc1O)c1cccc(S(=O)(=O)N2CCc3ccccc32)c1
    -2.24	1.8%	i
CCC1(C(=O)OC)NC(c2ccccc2OC)C2C(=O)N(C)C(=O)C21 (stereo unspecified)
    0.99	-2.5%	i
COc1ccc(C2C(C(=O)c3sc(C)nc3C)=C(O)C(=O)N2CCN(C)C)cc1 (stereo unspecified)
    -0.2	5.2%	i
CCN(CC)CCN1C(=O)C(O)=C(C(C)=O)C1c1ccc(OC)c(OC)c1 (stereo unspecified)
    -0.98	-2.4%	i
CCOc1ccc(NC(=O)CSc2nnc(-c3ccncc3)n2CC2CCCO2)cc1 (stereo unspecified)
    0.72	2.1%	i
CCN(CC)CCCN1C(=O)C(=O)/C(=C(/O)c2ccc(C)cc2)C1c1ccccn1 (stereo unspecified)
    1.08	-1.0%	i
Cc1ccc(C(=O)Nc2ccc(F)cc2F)o1
    nt	3.2%	i
CC(C)c1cc(C(F)(F)F)n2nc(C(=O)O)cc2n1
    nt	-5.3%	i
CC(Sc1sc(=S)sc1SC(C)C(=O)O)C(=O)O (stereo unspecified)
    -0.88	-0.2%	i
c1cncc(-c2nc(N3CCOCC3)c3ccccc3n2)c1
    nt	4.5%	i
Cc1nn2c(-c3ccc(Cl)cc3Cl)nnc2s1
    0.52	-4.7%	i
CC(C)c1nnc(SCC(=O)N2CCc3ccccc32)n1C
    nt	6.4%	i

Molecules above that contain a COOH group:
Each structure is followed by: WNV protease inh	Hsc70 ATP site	MT1-MMP reporter
CC(C)c1cc(C(F)(F)F)n2nc(C(=O)O)cc2n1
    nt	-5.3%	i
CC(Sc1sc(=S)sc1SC(C)C(=O)O)C(=O)O (stereo unspecified)
    -0.88	-0.2%	i

The results go on:
Each structure is followed by: WNV protease inh	Hsc70 ATP site	MT1-MMP reporter
Cc1ccccc1OCCC(=O)Nc1c(C)n(C)n(-c2ccccc2)c1=O
    -1.31	-1.7%	i
CCn1c(SCC(=O)N2CCc3ccccc32)nnc1-c1ccncc1
    -1	-0.2%	i
Cc1cc(Oc2ccc(=O)n(C)n2)nc(Oc2ccc(=O)n(C)n2)n1
    0.99	-6.9%	i
CS(=O)(=O)N1CCCC(C(=O)NCc2ccccc2Cl)C1 (stereo unspecified)
    -0.62	-8.3%	i
CCn1cc(S(=O)(=O)CC(=O)Nc2ccc(OC)cc2)c2ccccc21
    0.00309	-0.9%	i
C=CCN1C(=O)C2C(C(=O)NCc3ccccc3)C3C=CC2(O3)C1C(=O)NC(C)(C)C (stereo unspecified)
    -0.33	-3.6%	i
Cc1cccc(NC(=O)CSc2nc(C)nc3c2c(=O)n(C)c(=O)n3C)c1
    0.25	1.6%	i
CC(C)C(C)(C#N)NC(=O)CSc1nnc(-c2ccccc2)o1 (stereo unspecified)
    nt	-1.7%	i
OC(CN1C2=NCCN2c2ccccc21)c1ccc(Br)cc1 (stereo unspecified)
    1.71	37.7%	i
O=C(c1cccs1)N1CCCC(c2nc(-c3ccc(F)cc3)no2)C1 (stereo unspecified)
    -0.34	3.1%	i
CCOC(=O)C1CCCCN1C(=O)CCc1c(C)nc2ncnn2c1C (stereo unspecified)
    0.71	-6.9%	i
COC(=O)c1ccccc1NC(=O)c1ccc(COc2ccccc2)o1
    -0.11	-1.3%	i
Cc1[nH]nc2c1C(c1ccc3c(c1)OCO3)C(C#N)=C(N)O2 (stereo unspecified)
    1.21	-0.7%	i
CNC(=O)c1ccccc1NC(=O)c1cccc(S(=O)(=O)N2CCC(C)CC2)c1
    1.28	-6.0%	i
CC(=O)N1CCCc2ccccc21
    nt	2.7%	i

Compounds above containing an aryl methoxy group:
Each structure is followed by: WNV protease inh	Hsc70 ATP site	MT1-MMP reporter
CCC1(C(=O)OC)NC(c2ccccc2OC)C2C(=O)N(C)C(=O)C21 (stereo unspecified)
    0.99	-2.5%	i
COc1ccc(C2C(C(=O)c3sc(C)nc3C)=C(O)C(=O)N2CCN(C)C)cc1 (stereo unspecified)
    -0.2	5.2%	i
CCN(CC)CCN1C(=O)C(O)=C(C(C)=O)C1c1ccc(OC)c(OC)c1 (stereo unspecified)
    -0.98	-2.4%	i
CCn1cc(S(=O)(=O)CC(=O)Nc2ccc(OC)cc2)c2ccccc21
    0.00309	-0.9%	i

Continuation:
Each structure is followed by: WNV protease inh	Hsc70 ATP site	MT1-MMP reporter
CC(O)CNc1nc2ccccc2n1CC(=O)NCCc1ccc(Cl)cc1 (stereo unspecified)
    nt	-1.2%	i
O=C(Nc1nnc(-c2ccc3c(c2)CCCC3)o1)c1ccccc1Cl
    -1.09	2.5%	i
CSc1nc(-c2ccccc2)nc2c1COC(C)(C)C2
    2.04	0.6%	i
Cc1cccc(C(=O)NCC2CCCO2)c1 (stereo unspecified)
    nt	-1.5%	i
CC(C)(C)C(=O)Cn1c[n+](N)cn1
    0.04	2.9%	i
Cc1ccc(S(=O)(=O)N2CCC(C(=O)Nc3ccc4c(c3)COC4=O)CC2)cc1
    1.2	4.9%	i
O=c1c2c(nc3n1CCCCC3)-c1ccccc1CC21CCCCC1
    nt	4.4%	i
CCn1c(SCC(=O)OC2CCCCC2)nc2ccccc2c1=O
    0.97	3.8%	i
CCOc1ccccc1NC(=O)N1CCC(c2nc3ccccc3[nH]2)CC1
    0.75	-2.8%	i
O=C(c1cccs1)c1no[n+]([O-])c1C(=O)c1cccs1
    -0.83	5.0%	+
Cn1c(C(=O)N2CCN(c3cccc(C(F)(F)F)c3)CC2)cc2sccc21
    0.02	-6.7%	i
Cc1cccc(C2Nc3ccccc3C(=O)N2c2ccccc2)n1 (stereo unspecified)
    -0.37	0.3%	i
COC(=O)c1ccc(CN(Cc2ccc(C(=O)OC)o2)C(C)(C)C)o1
    0.79	-3.6%	i
COc1ccc(NC(=O)C2CCN(S(=O)(=O)c3cccnc3)CC2)cc1Cl
    -0.42	-0.8%	i
O=C(OC1CCc2ccccc2C1=O)c1ccccc1O (stereo unspecified)
    0.08	-5.3%	i

Each structure is followed by: WNV protease inh	Hsc70 ATP site	MT1-MMP reporter
Cc1cc(C)c2[nH]c(=O)c(C(c3nnnn3Cc3ccc4c(c3)OCO4)N3CCCC3)cc2c1 (stereo unspecified)
    1.46	-4.3%	i
COc1ccc(OC)c(NC(=O)C2CC(=O)N(c3ccc(Br)cc3)C2)c1 (stereo unspecified)
    -0.74	-2.8%	i
CCn1c(COc2ccccc2C(N)=O)nc2ccccc21
    -1.34	-1.0%	i
COc1ccc2[nH]c(=O)c(CNc3cccc(C)c3)cc2c1
    nt	0.7%	i
CC(C)CNC(=O)CCCc1ccccc1
    nt	-1.3%	i
COc1ccc(OC)c(C(C(=O)NCc2ccco2)N(C(=O)Cn2nnc3ccccc32)C(C)C)c1 (stereo unspecified)
    -1.21	2.4%	i
O=C(Nc1nc2ccccc2s1)C1CC(=O)N(c2ccccc2)C1 (stereo unspecified)
    nt	-2.4%	i
COC(=O)C1=COC(C)C2CN3CCc4c([nH]c5ccccc45)C3CC12 (stereo unspecified)
    -0.99	6.1%	i
COc1ccc(C2(C)NC(=O)N(Cc3cc(Cl)cc4c3OCOC4)C2=O)cc1OC (stereo unspecified)
    -0.33	1.8%	i
CSCCC(C(=O)O)N1C(=O)c2ccc(C(=O)O)cc2C1=O (stereo unspecified)
    nt	1.3%	i
CCOC(=O)c1sc2ncn(/N=C/c3ccccn3)c(=O)c2c1C
    0.19	-3.4%	i
COc1cccc(NC(=O)Cc2cccs2)c1
    0.12	-4.7%	i
O=C(Nc1cccc(NC(=O)C2CC3CCCC(C2)C3=O)n1)C1CC2CCCC(C1)C2=O (stereo unspecified)
    -0.63	-7.8%	i
O=C1c2ccccc2C(O)N1CCN1CCOCC1 (stereo unspecified)
    0.54	-0.1%	i
CCOc1ccc2cc(C#N)c(SCC(=O)OC)nc2c1
    -0.55	-9.7%	i

Each structure is followed by: WNV protease inh	Hsc70 ATP site	MT1-MMP reporter
O=C(NCc1ccco1)c1ccc2c(c1)C(=O)c1ccccc1-2
    -0.78	-14.2%	i
CC(C)Nc1nc(NC(C)C)nc(OCCOC(=O)Nc2ccccc2)n1
    nt	4.2%	i
CC1(C)CC(=O)NC=C(c2ccccc2)C1
    -0.13	-6.8%	i
O=S(N1CCCCCC1)C12CC3CC(CC(C3)C1)C2 (stereo unspecified)
    0.29	3.5%	i
COc1ccc(C(c2nnnn2CC2CCCO2)N2CCN(c3ccc(F)cc3)CC2)cc1 (stereo unspecified)
    0.04	-1.7%	i
N#Cc1nc(Cc2ccccc2)oc1NCc1cccnc1
    0.23	7.6%	i
CCc1ccc(N2C(=O)c3sc4nnc(C)c(=O)n4c3C2=O)cc1
    -0.79	-0.6%	i
Cc1ccc(NC(=O)N(Cc2cc3cc(C)cc(C)c3[nH]c2=O)CC2COCCO2)cc1 (stereo unspecified)
    0.38	-1.9%	i
CC(C)(C)OC(=O)Cn1c(=O)cnc2ccccc21
    nt	-7.0%	i
O=C(NC1CCCCC1)NC1CC2CCC(C1)N2C(=O)NC1CCCCC1 (stereo unspecified)
    0.17	4.2%	i
CCOc1ccccc1NC(=O)c1cccnc1
    nt	0.3%	i
Cc1cccc(NS(=O)(=O)c2cc(OCC(N)=O)c(C)cc2Cl)c1
    nt	3.5%	i
CCc1ccc(NC(=O)CSc2nc3ccccc3c(=O)n2CCN2CCOCC2)cc1
    2.39	-5.1%	i
CC(=O)Oc1ccc(C)cc1-n1nc2ccccc2n1
    nt	4.6%	i
Nc1ccccc1Nc1ccncc1[N+](=O)[O-]
    nt	-0.8%	i

Each structure is followed by: WNV protease inh	Hsc70 ATP site	MT1-MMP reporter
CCOc1cc(/C=N/n2cnnc2)ccc1OCC(=O)Nc1ccccc1OC
    -1.18	-0.5%	i
CCN(Cc1ccncc1)C(=O)C1CCN(S(=O)(=O)c2cccs2)CC1
    nt	-4.1%	i
O=c1c2c3nc4ccccc4nc3n(/N=C/c3ccco3)c2ncn1CCC1=CCCCC1
    -0.47	-2.9%	i
COc1ccc(C2=NOC(C(=O)NCCN3CCOCC3)C2)cc1 (stereo unspecified)
    -0.73	-1.2%	i
O=C(Nc1cc(C(F)(F)F)ccc1N1CCOCC1)c1cccnc1
    0.5	7.0%	i
Cc1cccc(C)c1NC(=O)CSCC(=O)O
    0.24	5.1%	i
CCCCOC(=O)C1CCCC(C)N1 (stereo unspecified)
    nt	4.6%	i
O=C(CSc1ccc2nnc(-c3ccccc3)n2n1)NCc1ccco1
    -0.01	1.6%	i
O=C(CC1(O)C(=O)N(Cc2ccccc2)c2ccccc21)c1ccncc1 (stereo unspecified)
    -1.47	1.9%	i
O=c1c2c([nH]c3ccccc13)CCCC2
    nt	-2.2%	i
O=C(O)C1CC=CCC1C(=O)Nc1ccc(S(=O)(=O)N2CCCc3ccccc32)cc1 (stereo unspecified)
    -0.39	0.1%	i
N#Cc1c(NC(=O)CSc2nnnn2C2CCCC2)sc2c1CCCC2
    -1.06	-0.9%	i
COc1cccc(CN(C)C(=O)c2ccc3nccnc3c2)c1
    nt	5.5%	i
N#Cc1nc(Cc2cccc3ccccc23)oc1NCCCN1CCOCC1
    -1.45	11.3%	i
Cc1ccc(NC(=O)c2cccc(OCc3c(C)noc3C)c2)c(C)c1
    -0.49	-4.0%	i

Reprinted from the part before: three entries, followed by the next part.
Each structure is followed by: WNV protease inh	Hsc70 ATP site	MT1-MMP reporter
COc1cccc(CN(C)C(=O)c2ccc3nccnc3c2)c1
    nt	5.5%	i
N#Cc1nc(Cc2cccc3ccccc23)oc1NCCCN1CCOCC1
    -1.45	11.3%	i
Cc1ccc(NC(=O)c2cccc(OCc3c(C)noc3C)c2)c(C)c1
    -0.49	-4.0%	i
Cc1sc(NC(=O)CN2CCOCC2)nc1-c1ccc2c(c1)CCN2S(=O)(=O)c1ccccc1
    nt	-6.3%	i
CCCCc1noc2c1/C(=N\O)CC(c1ccccc1)C2 (stereo unspecified)
    0.22	1.2%	i
CC(=O)N1c2ccccc2C(C)(c2ccccc2)CC1(C)C (stereo unspecified)
    nt	-0.3%	i
Cc1ccc(S(=O)(=O)CC(c2ccccc2)N2CCOCC2)cc1 (stereo unspecified)
    0.27	2.3%	i
Clc1cccc(-c2nn3c(-c4ccncc4)nnc3s2)c1
    -1.87	-4.2%	i
O=C(c1ccc(Cl)cc1)N1CCCCC(Sc2nnc(-c3ccc4c(c3)OCO4)o2)C1=O (stereo unspecified)
    -0.55	0.7%	0.14µM*
CCOC(=O)Cc1cc(=O)c2c(=O)n(-c3ccccc3)[nH]c2[nH]1
    -0.73	-10.7%	i
N#Cc1cn(CC(=O)N2CCCc3ccccc32)c2ccccc12
    nt	1.5%	i
